Source: PubChem BioAssay
Rango dissoc inh: inhibitors of RanGTP-induced Rango-importin beta complex dissociation. hit rate 0.071% among 340,000. O95149+P62826. Biochemical FRET Rango-importin beta, RanGTP-induced dissociation. Potency, µM (titrated, usually from 46.1 µM), for inactives: top-dose activity change, negative = inhibition; active means falling FRET ratio curve, often poorly fitted, with flat reads before Ran was added; inconclusive means other falling curves, or compound fluorescence or quenching; inactive means flat or rising ratio curve;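 note: potency is the fitted concentration of half-maximal effect; % of control where 0% means no effect; nearly all actives have a fitted effect of over 45% in size; -100% = wells without RanGTP and RCC1; the record marks most hits as doubtful in a second field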
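Rango/importin beta premix (0.1/0.25 uM final), PBS + 1 mM DTT + 0.02% Tween-20 + 0.1% BSA; cpd 5 min RT; FRET pre-read; + RanGTP-RCC1 (0.6 uM Ran, 2 mM GTP, 0.2 uM RCC1); 45 min RT; FRET post-read, ex 430, em 486/530 nm.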
Rango-impB inh: inhibitors of Rango-importin beta complex formation; Q14974; AID 540263; Potency, µM (doses to about 92.2 µM), without a hit: at the highest dose inhibition of complex formation; hit rate 0.031% among 340,000; Rango CFP/YFP FRET sensor + importin beta, 45 min; active = rising FRET ratio curve, often small or poorly fitted; inconclusive = mostly compound fluorescence or quenching in the first reads; inactive = flat curves in all reads;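 note: potency is the fitted concentration of half-maximal effect; 0% = DMSO wells and 100% = buffer wells lacking importin beta; nearly all actives have a fitted effect of over 15% in size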
Target sequence (Q14974 whole entry, looked up): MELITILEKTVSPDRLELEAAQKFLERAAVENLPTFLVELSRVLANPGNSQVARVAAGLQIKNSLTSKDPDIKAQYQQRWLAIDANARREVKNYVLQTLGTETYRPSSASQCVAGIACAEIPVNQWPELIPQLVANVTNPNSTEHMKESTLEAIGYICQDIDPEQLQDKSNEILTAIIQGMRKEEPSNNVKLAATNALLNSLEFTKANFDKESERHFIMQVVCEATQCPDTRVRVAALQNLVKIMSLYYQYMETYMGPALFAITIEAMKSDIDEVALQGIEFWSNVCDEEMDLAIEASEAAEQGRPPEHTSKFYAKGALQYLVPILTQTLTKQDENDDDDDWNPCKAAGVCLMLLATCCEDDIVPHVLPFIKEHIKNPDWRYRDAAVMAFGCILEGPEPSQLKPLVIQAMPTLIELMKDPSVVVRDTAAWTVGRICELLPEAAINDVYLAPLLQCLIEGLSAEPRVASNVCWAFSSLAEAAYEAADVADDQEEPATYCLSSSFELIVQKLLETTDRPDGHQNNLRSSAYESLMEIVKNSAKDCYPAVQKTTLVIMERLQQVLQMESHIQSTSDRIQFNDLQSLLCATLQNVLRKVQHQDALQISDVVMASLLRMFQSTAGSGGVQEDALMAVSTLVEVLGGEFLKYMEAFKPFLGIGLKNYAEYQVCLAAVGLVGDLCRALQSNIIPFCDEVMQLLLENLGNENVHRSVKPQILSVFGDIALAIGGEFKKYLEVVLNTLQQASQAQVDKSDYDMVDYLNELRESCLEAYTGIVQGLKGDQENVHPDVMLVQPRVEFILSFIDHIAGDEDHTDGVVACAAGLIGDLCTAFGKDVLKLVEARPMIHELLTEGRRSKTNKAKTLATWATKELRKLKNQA
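Inhibition scored from the CFP 486 nm/YFP 530 nm FRET ratio 45 min after adding 0.125 microM importin beta to 50 nM Rango biosensor preincubated 5 min with compound (room temperature, PBS with DTT, Tween-20, BSA). No-importin wells as positive control.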
GLA inh pH 4.5: inhibitors of human alpha-galactosidase A at pH 4.5; purified enzyme, 4-MU-alpha-Gal fluorescence, pH 4.5; 230,000 tested, under 10 active; activity change, negative = inhibition, % at 105 µM; P06280; inconclusive = small, poorly fitted or top-dose-only inhibition, or a rising curve; inactive = flat fitted curve, though single readings scatter; no compound was filed as active;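 note: 0% = full activity with enzyme and -100% = basal without enzyme; dose as in the result columns while the protocol names 77 µM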
miR-21 FLuc: raises the signal of a miR-21 reporter; AID 2288; Potency, µM (top dose mostly 38.3 µM), without a hit: at the top dose reporter change, positive = more light; 340,000 tested, under 10 active; HeLa miR-21 FLuc reporter, luciferase, 48 h; active = well fitted rising curve with a large enough effect; inconclusive = small, poorly fitted or top-dose-only effect; inactive = no such curve, though single readings can be large or run the other way;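 note: % of control where 0% means no effect; miR-21 action dims this reporter so a rising signal means less miR-21 action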
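HeLa miR-21-FLuc reporter line, endogenous miR-21; 2000 cells/well in DMEM/10% FBS; compound titration up to ~40uM final, 48 h, 37 degree Celsius; luciferase detection reagent, 15 min lysis, CCD luminescence.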
* marks the source's active call; other numbers are inactive results; ? = inconclusive; . = no result given.

SMILES	Rango dissoc inh	Rango-impB inh	GLA inh pH 4.5	miR-21 FLuc
O=C1CC[C@@H](O)CCN1CC[C@H](Sc1ccc(Br)cc1)c1ccccc1	-7%	-5.8%	.	.
CCOC(=O)c1cnn2c(C)cc(-c3ccc(F)cc3)nc12	-8%	0.5%	1	-74%
CCOC(=O)C1CCN(C(=O)c2cc(S(=O)(=O)N3CCOCC3)ccc2C)CC1	?	-3.0%	.	.
CCCN(CCC)CCCNC(=O)CNC(=O)c1nn(-c2ccc(OC)cc2)c(=O)c2ccccc12	-2%	-1.0%	-12	-2%
CC(C)c1ccc(NC(=O)C2C3C=CC4(O3)C2C(=O)N(CCCN2CCCCC2)C4C(=O)NC2CCCCC2)cc1 (stereo not drawn)	1%	-2.6%	.	-2%
COc1ccc2c(O)c(-c3c(C)cc(C)cc3C)c(=O)[nH]c2c1	7%	-0.2%	.	.
O=C(NC(=S)Nc1ccc(Br)cn1)c1cncc(Br)c1	-7%	2.3%	1	-6%
O=c1c2sccc2n(Cc2cccc(F)c2)c(=O)n1-c1ccc(F)cc1	?	-2.5%	3	-7%
CC/S(CC1CC1(Cl)Cl)=N\S(=O)(=O)c1ccc(C)cc1 (stereo not drawn)	6%	0.3%	7	3%
CC(C)(CCC(=S)N1CCOCC1)c1ccccc1	-4%	0.7%	.	.
Cc1c(Cl)c(-c2n[nH]c(=S)n2-c2ccccc2)nn1C	-1%	-3.1%	6	-13%
O=c1c2ccccc2nc2n1CCC2	-9%	2.8%	6	0%
Nc1ccc(-c2nc3ncccc3o2)c(O)c1	-10%	-6.3%	.	-54%
O=C(c1ccco1)N(Cc1nc2ccccc2c(=O)[nH]1)C1CCCC1	-10%	-4.5%	2	-6%
COc1ccc(-c2c3c(cc(C)[n+]2[O-])oc2ccc(OC)cc23)cc1	12%	?	1	20%
Cc1ccc(-c2nnc(-c3cccc(Br)c3)o2)cc1	-2%	-1.5%	3	-48%
Cc1nc2c(C(=O)NCc3ccco3)cnn2c(C)c1Cc1ccc(F)cc1Cl	6%	-1.1%	-13	-3%
O=C(NNc1cccc(Cl)n1)C(F)(F)F	19%	-0.9%	1	-13%
O=C(CCS(=O)(=O)c1ccc(Cl)cc1)NCCc1c[nH]c2ccccc12	0%	-0.5%	-8	5%
C=CCn1c(C)cc(C(=O)CN2C(=O)c3ccccc3S2(=O)=O)c1C	-7%	-0.7%	.	.
Cc1ccccc1CN(c1ccc(C(N)=O)cc1)S(C)(=O)=O	6%	2.6%	7	3%
Cc1nc(-c2cccc(S(=O)(=O)N3CCOCC3)c2)cs1	-11%	1.4%	1	-14%
COC(=O)NCC(c1cccnc1)N1CCN(c2ccccc2OC)CC1 (stereo not drawn)	-7%	1.7%	-3	3%
O=C(N/N=C/c1ccc2c(c1)OCO2)c1ccc(NC(=O)c2ccc(F)cc2)cc1	25%	-0.1%	.	0%
COCCNC(=O)CCCn1c(=O)c2ccccc2n(CC(=O)NCCC2=CCCCC2)c1=O	-16%	-0.9%	9	-1%

Further results.
SMILES	Rango dissoc inh	Rango-impB inh	GLA inh pH 4.5	miR-21 FLuc
COc1ccc(Cl)cc1S(=O)(=O)n1nnc2ccccc21	7%	-3.0%	5	-2%
Cc1nc(C(=O)NCCC(C)C)sc1C1(C)CC(c2ccccc2)=NO1 (stereo not drawn)	-24%	1.2%	-15	9%
O=C(CSC1=Nc2ccccc2C2=NC(Cc3c[nH]c4ccccc34)C(=O)N12)NC1CCCCC1 (stereo not drawn)	0%	2.3%	-6	0%
COC(=O)C(Cc1ccccc1)NC(=S)NC(=O)c1ccccc1 (stereo not drawn)	15%	-3.2%	0	0%
Cc1nc(SCc2ccccc2C)n[nH]1	-7%	-0.5%	-3	-32%
CCOc1ccc(S(=O)(=O)Nc2ccc(C(=O)NNC(=O)c3ccncc3)cc2)cc1	-6%	-5.5%	.	.
O=C(Cc1ccc(Cl)cc1)Nc1ccc(S(=O)(=O)Nc2ncccn2)cc1	-3%	0.3%	.	-6%
CN(C)n1cnc2ccsc2c1=O	14%	3.4%	10	-1%
O=C(CN1CCN(Cc2ccc(Cl)cc2)C1=O)NCCCN1CCOCC1	-5%	-1.2%	-12	0%
CN(C)/C(=N\OC(=O)c1ccccc1)c1nonc1N	-1%	-0.1%	7	-6%
COc1ccc(OC)c(/C=C/C(=O)N(C)CC(=O)Nc2ccc(N3CCOCC3)cc2)c1	1%	0.1%	.	.
O=C(c1ccco1)N1CCN(C(=O)c2ccc(CS(=O)c3ccc(F)cc3)o2)CC1 (stereo not drawn)	-12%	-0.1%	.	2%
COc1ccc(-n2ncc3c(N4CCCCC4)ncnc32)cc1	-7%	-4.8%	1	?
CC(CNc1ccc([N+](=O)[O-])c2cccnc12)Nc1c([N+](=O)[O-])cc(C(F)(F)F)cc1[N+](=O)[O-] (stereo not drawn)	-12%	4.8%	-4	4%
CC(=O)c1ccc(NC(=O)CSc2nc3ccccc3c(=O)n2CCCN2CCOCC2)cc1	-10%	-1.3%	.	.
COc1ccc(OC)c(S(=O)(=O)N2CCCc3ccccc32)c1	2%	0.5%	-6	-2%
Cn1c(/C(C#N)=C(\O)c2cc(Cl)sc2Cl)nc2ccccc21	-13%	-1.5%	.	2%
CCc1nc(C(N)=O)c2[nH]c(=O)n(-c3ccccc3F)c2n1	-2%	-3.3%	.	-4%
CCOCCn1ccc2c(OCC(=O)Nc3cc(OC)ccc3OC)cccc2c1=O	-5%	0.3%	.	.
C[C@H](NC(=O)c1ncn(Cc2ccccc2)c1C(=O)N[C@@H](C)c1ccccc1)c1ccccc1	45%	-3.6%	.	.
O=C(CSc1nnc(CNC(=O)c2ccco2)o1)Nc1ccccc1C(F)(F)F	10%	-2.3%	.	0%
O=C(Cc1n[nH]c(=O)c2ccccc12)NCc1ccc(Cl)cc1	-2%	0.5%	-3	1%
Nc1nc(SCC(=O)Nc2ccc(Br)cc2Br)n[nH]1	-10%	-1.0%	.	.
N#Cc1nc(Cc2cccc3ccccc23)oc1N1CCC(C(N)=O)CC1	-7%	?	-6	-15%
CC(Sc1nnc(-c2ccc(Cl)cc2)n1C)C(N)=O (stereo not drawn)	1%	0.0%	11	-4%

Reformatted: entries from further up
CCOc1ccc(S(=O)(=O)Nc2ccc(C(=O)NNC(=O)c3ccncc3)cc2)cc1
  Rango dissoc inh: -6%; Rango-impB inh: -5.5%; GLA inh pH 4.5: .; miR-21 FLuc: .
O=C(Cc1ccc(Cl)cc1)Nc1ccc(S(=O)(=O)Nc2ncccn2)cc1
  Rango dissoc inh: -3%; Rango-impB inh: 0.3%; GLA inh pH 4.5: .; miR-21 FLuc: -6%
CN(C)n1cnc2ccsc2c1=O
  Rango dissoc inh: 14%; Rango-impB inh: 3.4%; GLA inh pH 4.5: 10; miR-21 FLuc: -1%

Limited to Rango dissoc inh, for some of the entries so far:
molecule,Rango dissoc inh
O=C(Cc1ccc(Cl)cc1)Nc1ccc(S(=O)(=O)Nc2ncccn2)cc1,-3%
O=C(Cc1n[nH]c(=O)c2ccccc12)NCc1ccc(Cl)cc1,-2%
Cc1nc(C(=O)NCCC(C)C)sc1C1(C)CC(c2ccccc2)=NO1 (stereo not drawn),-24%

More entries:
SMILES	Rango dissoc inh	Rango-impB inh	GLA inh pH 4.5	miR-21 FLuc
O=C(NCc1ccccc1C(F)(F)F)C1CC(c2ccc(C(F)(F)F)cc2)=NO1 (stereo not drawn)	-4%	0.5%	-9	-2%
N/C(=N\S(=O)(=O)c1ccccc1)c1ccc([N+](=O)[O-])cc1	1%	-1.9%	-6	1%
CSc1nnc(-c2ccc(S(=O)(=O)N3CCCC3)cc2)n1C	-1%	-1.8%	-9	-6%
COc1ccc(OCC(O)Cn2ccnc2C)cc1 (stereo not drawn)	4%	-3.1%	3	-14%
O=C(Nc1ccccc1NS(=O)(=O)c1ccc(F)cc1)C1CCCC1	-2%	-3.5%	-8	1%
C/C(=C\c1ccccc1)CN1CCN(C(C)C)C(CCO)C1 (stereo not drawn)	3%	2.3%	.	-1%
CC(C)c1ccc(CNCCCSc2ncccn2)cc1	-3%	?	.	-8%
C/C(=N\NC(=O)c1n[nH]c2c1CCC2)c1ccco1	1%	-1.1%	5	25%
CCOC(=O)c1sc2nc(CC(=O)OC)nc(N(C)CCc3ccccn3)c2c1C	-16%	7.0%	2	-2%
CCOc1cc(/C=N/NC(=O)c2cccc(S(=O)(=O)N3CCOCC3)c2)ccc1OCC(=O)N(C)C	11%	-0.9%	.	.
COC(=O)C1CCN(c2cnccn2)CC1	-16%	0.0%	-10	-4%
CCOC(=O)c1ccc(NC(C)=O)c([N+](=O)[O-])c1	26%	5.3%	-1	-10%
CC(=O)Nc1ccc(NC(=O)C2CC(=O)N(C(C)C)C2)cc1 (stereo not drawn)	-3%	-0.4%	.	-1%
CC1=C(C)CC(C(=O)Nc2nc(C)cs2)C(C(=O)O)C1 (stereo not drawn)	2%	-1.0%	.	-1%
COCCN(CCOC)C(=O)CCn1c(=O)oc2ccccc21	5%	3.1%	-5	-1%
COc1ccc(N2CC(C(=O)Nc3nnc(Cc4ccccc4)s3)CC2=O)cc1 (stereo not drawn)	1%	-3.6%	.	2%
Cc1ccc(C2C(C(=O)c3cccs3)=C(O)C(=O)N2c2nnc(C)s2)cc1 (stereo not drawn)	0%	-3.7%	0	-35%
CC(c1ccccn1)N(C)C(=O)c1ccc2nc(Cc3ccccc3F)oc2c1 (stereo not drawn)	-11%	-4.3%	.	-57%
CCN1C(=O)[C@H]2[C@H]3CN=C(SCc4ccc(C(=O)OC)cc4)N3[C@@](Cc3ccccc3)(C(=O)OC)[C@H]2C1=O	-10%	4.3%	.	.
CN(C)c1ccc(C2N3CC4(C)CN2CC(C)(C3)C4O)cc1 (stereo not drawn)	27%	-0.5%	-20	0%
COc1ccc(C(=O)Nc2nnc(-c3ccccc3)o2)cc1OC	7%	-0.7%	-9	-1%
Cc1cccc(Cl)c1NC(=O)N1CCN(c2ccnc3cc(Cl)ccc23)CC1	31%	7.8%	-11	-5%
C=CCn1c2ccccc2c2nnc(SCC(=O)OCN3C(=O)c4ccccc4C3=O)nc21	-4%	-2.1%	6	-7%
COc1ccccc1N1CCN(C2CCCN(C(=O)CC(F)(F)F)C2)CC1 (stereo not drawn)	6%	1.1%	.	0%
CCN(c1ccccc1)S(=O)(=O)c1ccc(C(=O)NC2CCN(Cc3ccccc3)CC2)cc1	-13%	?	.	.

(further entries)
SMILES	Rango dissoc inh	Rango-impB inh	GLA inh pH 4.5	miR-21 FLuc
COC(=O)C(c1ccccc1)C1(O)CC(C)N(C)CC1C (stereo not drawn)	12%	-0.3%	.	-4%
O=C(/C=C/c1cccc([N+](=O)[O-])c1)NCCSCc1ccc(Cl)cc1	23%	-2.0%	-3	-3%
CCOc1ccccc1N1CCN(S(=O)(=O)c2ccc3c4c(cccc24)C(=O)N3)CC1	-13%	-3.4%	?	-6%
COc1ccc(C2NC(c3ccc(OC)c(OC)c3OC)C(C)C(=O)C2C)c(OC)c1OC (stereo not drawn)	-1%	-2.3%	1	-1%
CCn1c(CSc2nc(C)cs2)nc2cc(S(=O)(=O)N(C)C)ccc21	7%	-5.2%	2	-6%
CCOCCCn1c(=S)[nH]c2cc(C(=O)N3CCN(C)CC3)ccc2c1=O	-5%	3.2%	3	0%
CCC(C)NC(=O)C1CCCN(S(=O)(=O)c2ccc3c(c2)CC(C)N3C(=O)C2CC2)C1 (stereo not drawn)	-5%	0.7%	.	-4%
C=CCn1cnc2c(c1=O)c1nc3ccccc3nc1n2-c1ccc(C)cc1	.	.	-8	-5%
Cc1c(C)c2c(OCC(=O)N[C@@H](C)C(=O)O)cc3c(c2oc1=O)CCC(C)(C)O3	-15%	-1.5%	.	-4%
O=C(NC(NC(=S)Nc1ccccc1O)C(Cl)(Cl)Cl)c1ccco1 (stereo not drawn)	5%	0.6%	0	0%
CCCN1CCN(CCCNC(=O)Cn2nc(C)n3c(cc4cc(OC)ccc43)c2=O)CC1	-22%	0.0%	.	1%
Cc1ccc(N2CCN(c3ccc(C)cc3)C2c2cccnc2)cc1	0%	2.9%	-5	1%
CCCCC(CC)C(=O)Nc1cc(C(=O)NCCC)ccc1N1CCC2(CC1)CC(c1ccccc1)=NO2 (stereo not drawn)	5%	2.3%	.	10%
O=C(CCNS(=O)(=O)c1ccc(Cl)cc1)NCc1cccs1	25%	0.8%	4	-2%

A portion of the library, so the mix of outcomes need not match the whole.
